ClpP mod = qHTS Assay for Activators of ClpP. ATP-dependent Clp protease proteolytic subunit (Bacillus subtilis (strain 168)), P80244. purified B. subtilis ClpP, FRET peptide cleavage, 20 min. Potency, µM (top dose mostly 57.5 µM), for the others: top-dose activity change, negative = active. hit rate 1.9% among 340,000. AID 651965, 2013; active = well fitted falling curve with a large enough effect; inconclusive = small, poorly fitted or top-dose-only effect; inactive = no such curve, though single readings can be large or run the other way; also: the source files actives as falling curves though it sought activators and does not explain the sign; nearly all actives have a fitted effect of over 65% in size; many hits overshoot -100%
Target sequence (P80244 whole entry, looked up): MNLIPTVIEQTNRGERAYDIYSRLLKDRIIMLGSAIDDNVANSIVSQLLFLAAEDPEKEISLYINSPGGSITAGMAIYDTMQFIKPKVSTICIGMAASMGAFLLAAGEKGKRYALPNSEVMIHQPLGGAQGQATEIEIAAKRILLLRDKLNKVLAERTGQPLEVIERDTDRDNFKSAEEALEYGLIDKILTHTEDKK
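ClpP 10 microg/mL final, pH 8 Tris/KCl buffer with BSA, glycerol, Tween-20; compound pinned in; FRET-FV substrate; RT 20 min; Ex320/Em430; ΔFRET vs ADEP 5.8 microM, DMSO, no enzyme.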
The depositor's hits bear a star; ? = inconclusive. Potency is read from the fitted curve at half-maximal effect. Not all compounds are listed. The share of hits here may be higher or lower than overall.

canonical_smiles,ClpP mod
Cc1c(C(=O)N2CCC(C)CC2)c(S(=O)(=O)N2CCN(c3ccc(Cl)cc3)CC2)c(C)n1C,-0.5%
Cc1cc(C)cc(NC(=O)CSc2oc(-c3ccccc3)nc2S(=O)(=O)c2ccc(Cl)cc2)c1,-1.2%
CCN1CCN(C(c2ccc(SC)cc2)c2c(O)cc(C)n(CCOC)c2=O)CC1 (centres undefined),0.9%
Cc1ccc(C(=O)NCC(=O)OCc2cc(=O)n3nc(C4CCCCC4)sc3n2)cc1,-5.4%
CCOC(=O)[C@]12CCC=C1N(Cc1ccco1)C(=O)[C@H](CC(=O)N1CCCC1)C2,0.9%
Cc1cccc(NC(=O)CSC2=Nc3ccccc3C3=NC(CCC(=O)NCc4ccc(F)cc4)C(=O)N23)c1 (centres undefined),-7.6%
NC(=O)c1ccccc1NC(=O)C1CCCN(c2ncnc3onc(-c4ccc(F)cc4)c23)C1 (centres undefined),-9.4%
Cc1c(CNC2CCCCC2)c(C(=O)O)c(C)n1Cc1ccc(F)cc1,-0.1%
CCOc1ccc(-c2nn(CC(=O)NC3CCCCC3)c3c2cnc2ccc(C)cc23)cc1,-21.6%
COc1ccc(Cl)cc1NC(=O)CCS(=O)(=O)c1cccc2nonc12,-0.5%
O=C(NCc1ccc(F)cc1)C1CCN(S(=O)(=O)c2ccc3c(c2)CCCN3C(=O)C2CCC2)CC1,-3.9%
CC(C)OCCCNC(=O)c1ccc(-n2c(-c3ccccc3)cc3c2CCCC3)cc1,-10.6%
COc1cccc(-c2noc(-c3cc4ccccc4oc3=O)n2)c1OC,?
CCc1ccccc1Nc1cc(C(=O)NCCCN(C)C2CCCCC2)c2ccccc2n1,-2.3%
CC1CCN(C(=O)c2cnn(-c3cccc(Cl)c3)c2C2CCN(C(=O)OC(C)(C)C)CC2)CC1,-0.1%
Cc1ccc(CN2C(=O)SC(Nc3ccccc3)C2=O)cc1 (centres undefined),2.0%
CCOC(=O)c1cc(S(=O)(=O)Nc2ccc(Br)c(C)c2)[nH]n1,1.8%
CCOc1ccc(C2C(=O)N(C3CCCCC3)CC(=O)N2CCc2ccccc2)cc1OC (centres undefined),-1.9%
Cc1nc(N2CCCC2)c2c(C(=O)Nc3cccc(Cl)c3)c(C)oc2n1,1.6%
CC(=O)c1ccc(N2C(=O)N(CC(=O)c3ccc(F)cc3)c3ccccc3S2(=O)=O)cc1,-1.4%
COc1ccc(S(=O)(=O)NCc2cccn2Cc2cccc(C)c2)cc1OC,0.8%
O=C(c1ccc2c(c1)CCCC2)N1CCN(c2nc3c(F)cccc3s2)CC1,0.2%
COC(=O)[C@]12CCCCC=C1N(Cc1ccccc1)C(=O)[C@H](CC(=O)N1CCN(C(=O)c3ccco3)CC1)C2,-0.6%
CCc1cccc(C)c1NC(=O)c1cc(S(=O)(=O)N2CCN(c3ccccc3)CC2)ccc1F,-1.0%
Cc1ccc(NC(=O)CCc2nc(-c3ccccc3F)no2)c(C)c1,0.2%
CN(Cc1ccccc1)C(C(=O)NC1CCCCC1)c1ccc(Cl)cc1 (centres undefined),?
COc1ccc(OC)c(S(=O)(=O)Nc2cc3c(C(C)=O)c(C)oc3c3ccccc23)c1,-0.2%
Cc1cc(C)cc(NC(=O)CSc2nc3nccnc3c(=O)n2CCc2c[nH]c3ccccc23)c1,3.3%
Cc1c(CCO)sc[n+]1CC(=O)c1ccc2ccccc2c1,3.8%
CC(NC(=O)c1ccc2c(c1)CCN2S(=O)(=O)c1ccc(Cl)cc1)c1ccccc1 (centres undefined),-2.2%

(more compounds)
canonical_smiles,ClpP mod
Cc1cccc(N(CC(=O)NCCSc2ccc(Cl)cc2)S(=O)(=O)c2ccccc2)c1C,-1.7%
O=C(CSc1oc(-c2ccco2)nc1S(=O)(=O)c1ccc(Cl)cc1)c1ccccc1,3.2%
CCOC(=O)c1cccc(NS(=O)(=O)c2ccc(-c3coc(C)n3)cc2)c1,1.3%
CCCn1c(=N)c(C(=O)NCc2ccccc2)cc2c(=O)n3cccc(C)c3nc21,4.8%
CCN(CC)c1ccc(C(=O)NCc2ccc3c(c2)CCN3C(=O)c2ccccc2)cc1,?
CCOc1ccc(CNC(=O)c2cc3ccccn3n2)cc1,4.5%
Cc1ccc(Cn2cc(CN3CC(N4CCN(Cc5ccccc5F)CC4)CS3(=O)=O)nn2)cc1 (centres undefined),-2.9%
O=C(Nc1ccc2nc(SCC(=O)N3CCOCC3)sc2c1)c1cccc(Br)c1,?
COc1ccccc1OCC(=O)Nc1nc(-c2ccc(Br)cc2)ns1,-1.5%
S=C(NCCCN(Cc1ccc(Cl)cc1)c1ccc(-c2ccccc2)cn1)NCCCN(Cc1ccc(Cl)cc1)c1ccc(-c2ccccc2)cn1,5.0%
COc1ccc(-c2ccc3c(c2)c(Sc2ccccc2)c(-c2ccccc2)n3C)cc1,-12.2%
COc1ccc(CNC(=O)Cn2c(=O)nc(-c3ccccc3F)c3cc(Cl)ccc32)cc1,-8.2%
CCc1c(C)sc2c1CCN(Cc1cccc(F)c1)C2c1ccccc1 (centres undefined),?
Cc1[nH]c2ccc(F)cc2c1CCNC(=O)c1cc2cc(Cl)ccc2oc1=O,5.1%
Cc1ccc(OCC(=O)N(Cc2ccc(Cl)cc2)Cc2ccco2)cc1C,-3.5%
COc1ccc(C2CC(=O)Nc3c2c(=O)[nH]c2nc4ccccc4n32)cc1OC (centres undefined),-21.2%
CCc1cccc(NS(=O)(=O)c2ccc3c(c2)N(CC(=O)OC)C(=O)CS3)c1,-4.9%
Cc1cccc(N2CCN(C(=O)c3cnn(-c4ccc(F)cc4F)c3C3CCN(C(=O)OC(C)(C)C)CC3)CC2)c1C,1.9%
Cc1cc(F)ccc1S(=O)(=O)Nc1cc2c(C(=O)O)c(C)oc2c2ccccc12,-7.4%
COc1cccc(C2=CC(c3cc(Br)ccc3F)n3nnnc3N2)c1 (centres undefined),-9.3%
COc1ccccc1CNS(=O)(=O)c1cnc(N)nc1,-2.4%
COc1cccc(S(=O)(=O)N2C[C@H](O)COC[C@H]3O[C@@H](CC(=O)N4CCN(C)CC4)CC[C@@H]32)c1,0.3%
COc1ccc(-c2noc(CN(C(=O)C(C)Oc3ccc(C)cc3)C(C)C)n2)cc1 (centres undefined),0.0%
COc1ccc(NC(=O)CN2C(=O)COc3ccc(S(=O)(=O)Nc4ccccc4)cc32)cc1OC,-2.2%
CCCCNC(=O)c1ccc2c(c1)ncn2-c1cc(OC)ccc1OC,-2.0%
Cc1ccc(CNc2nc3ccc(Cl)cc3n3cnnc23)cc1,-1.8%
Oc1ccccc1C1C=C(c2ccc3c(c2)OCO3)NC(c2ccc(Br)cc2)N1 (centres undefined),-0.5%
COC(=O)[C@@]12C[C@@H](CC(=O)N3CCN(C(=O)c4ccco4)CC3)C(=O)N(CCc3ccc(OC)c(OC)c3)C1=CCC(C)(C)C2,0.3%
COc1ccc(C)cc1NC(=O)c1cc(S(=O)(=O)N2CCCCC2)c[nH]1,41.5%
CCc1cccc(C)c1NC(=O)Cn1c(=O)n(-c2ccc(C)cc2)c(=O)c2c1cnn2C,1.0%

(more compounds)
canonical_smiles,ClpP mod
O=C1CCC[C@@H]2[C@@H](Cc3ccccc3)[C@@H](Nc3ccccc3)C[C@@H]3CCN1[C@@H]32,1.7%
COc1ccc(CNC(=O)c2cc3c(=O)n4cccc(C)c4nc3s2)cc1,-24.0%
CCc1ccc(-c2nc(CS(=O)CC(=O)NCc3ccc(F)cc3)c(C)o2)cc1 (centres undefined),-14.3%
CC(C)c1ccc(-c2nnc3n(CCc4ccccc4)c(=O)c4ccccc4n23)cc1,-4.3%
CCOC(=O)C(C)Sc1nnc2cc(C)c3ccccc3n12 (centres undefined),-2.2%
CC(=O)Nc1ccccc1-c1nc2ccccc2n(C(C)C(=O)Nc2cccc(C)c2C)c1=O (centres undefined),-4.5%
COc1cc(NC(=O)c2cc(C)nc3c2c(C)nn3-c2ccccc2Cl)cc(OC)c1,0.8%
Cc1cc(N2CCN(C)CC2)nc2ccc(NC(=O)Nc3ccccc3)cc12,4.0%
Cc1ccc2c(=O)cc(C(=O)Nc3cccc(Cl)c3C)oc2c1C,2.0%
COc1cc(NC(=O)CC2C(=O)N(c3ccccc3)C(=O)N2Cc2ccc(F)cc2)cc(OC)c1 (centres undefined),0.2%
CCn1nc(-c2ccccc2)c(-c2ccccc2)c(C(=O)Nc2nc(C)c(C(=O)N(C)C)s2)c1=O,-0.4%
O=C(COc1ccc(Cl)cc1)NCC(c1ccco1)S(=O)(=O)c1ccc(F)cc1 (centres undefined),-0.6%
COc1cccc(NC(=O)CCNS(=O)(=O)c2ccc3c(c2)CCCC(=O)N3)c1,-1.8%
CCc1ccccc1NC(=O)CN1C(=O)c2cccnc2Oc2ccc(Cl)cc21,1.3%
CCOc1ccc(-c2nnc(SCC(=O)Nc3ccc(C)cc3Cl)o2)cc1,0.6%
O=C(NCC(c1ccco1)S(=O)(=O)c1cccs1)c1ccc(C(F)(F)F)cc1 (centres undefined),1.8%
CCCCNC(=O)c1cc(-c2ccccc2)sc1N,-14.0%
Cc1cccc2c(=O)cc(CSc3ccccc3NC(=O)c3cccc(Cl)c3)[nH]c12,0.3%
COc1ccc(-c2noc(-c3ccc(N4CCN(c5ccccc5)CC4)c([N+](=O)[O-])c3)n2)cc1OC,-2.5%
Cn1cnc(S(=O)(=O)N2CCC(C(=O)Nc3ccc(C#N)cc3)CC2)c1,2.3%
CCOC(=O)c1ccc(NC(=O)C2=C(C)Nc3nc(SCc4ccc(Cl)cc4)nn3C2c2ccc(C)cc2)cc1 (centres undefined),-0.5%
COc1ccc(-c2noc(-c3ccc(NC4CCCC4)c([N+](=O)[O-])c3)n2)cc1OC,0.6%
N#Cc1ccc(CN2C(=O)c3ccccc3Sc3ccc(C(=O)OCc4ccco4)cc32)cc1,0.2%
Cc1ccc2ncc3c(-c4ccc(F)cc4)nn(-c4cccc(F)c4)c3c2c1,-3.1%
CC(=O)Nc1c(C(=O)Nc2cccc(C)c2)nnn1-c1ccc(C)cc1,-1.7%
Clc1ccc(OCc2nc(-c3ccc(-n4cccc4)cc3)no2)cc1,-6.0%
CN(C)c1ccc(NC(=O)CSc2nc(-c3ccco3)cc(C(F)(F)F)n2)cc1,-0.1%
CCc1ccc(CNC(=O)Cn2nc(C)c3c(C)n(-c4ccc(C)cc4)nc3c2=O)cc1,-1.3%
O=c1[nH]c2cc3ccccc3cc2nc1-c1nnnn1Cc1ccccc1,-0.2%
COc1ccc(-c2cc(C(F)(F)F)nc(SCC(=O)NCCc3ccccc3)n2)cc1,4.3%

(continued)
canonical_smiles,ClpP mod
Cc1ccc(-c2nc3c(c(SCC(=O)N(C)c4ccccc4)n2)Cc2c(CO)cnc(C)c2O3)cc1,-3.5%
CCCCCn1c(NCc2ccc(OC)cc2)nc2ccccc21,-2.2%
Cc1cc(C)c(OCC(=O)N(Cc2ccco2)Cc2ccco2)c(C)c1,1.2%
CC1CCCCN1S(=O)(=O)c1cc2c3c(c1)CC(=O)N3CCC2 (centres undefined),-0.6%
C=Cc1ccc(CN2C(=O)c3ccccc3Sc3ccc(C(=O)OCc4ccco4)cc32)cc1,-2.6%
CCc1ccccc1-n1cnc2cc(C(=O)NC3CCCCCC3)ccc21,-0.7%
COc1cc(OC)c(NC(=O)Nc2nnc(N(C)C3CCCCC3)s2)cc1Cl,0.9%
CCc1ccc(NC(=O)CC2C(=O)OCCN2CC)cc1 (centres undefined),1.5%
COc1cccc(CNC(=O)Nc2cn(CC(C)C)c(=O)c3ccccc23)c1,4.1%
CCCOc1ccc(C2C(=O)N(C3CCC(C)CC3)CC(=O)N2CCc2ccccc2)cc1OC (centres undefined),-1.6%
COc1ccc(-c2nc(CNS(=O)(=O)c3ccc(F)cc3)cs2)cc1,4.7%
COC(=O)[C@]12CCCCC=C1N(Cc1ccc3c(c1)OCO3)C(=O)[C@H](CC(=O)NCCc1ccccc1OC)C2,1.4%
CCCC12CN3CC(C)(CN(C1)C3c1ccc(CC)cc1)C2=O (centres undefined),0.9%
CC1CN(C(=O)Nc2ccc(C(=O)NCCc3ccccc3)cc2)c2ccccc2S1 (centres undefined),-3.3%
CCOc1ccc(C2C(=O)N(C3CCCCCC3)CC(=O)N2CCc2ccc(Cl)cc2)cc1OC (centres undefined),-0.1%
O=C(NC1CCCCC1)C1c2ccccc2OCC(=O)N1CC(F)(F)F (centres undefined),1.9%
Fc1ccc(-n2ncc3c(NCCCN4CCOCC4)ncnc32)cc1,3.9%

Nothing new here: an excerpt of the list.
canonical_smiles,ClpP mod
CC1CCCCN1S(=O)(=O)c1cc2c3c(c1)CC(=O)N3CCC2 (centres undefined),-0.6%
C=Cc1ccc(CN2C(=O)c3ccccc3Sc3ccc(C(=O)OCc4ccco4)cc32)cc1,-2.6%
CCc1ccccc1-n1cnc2cc(C(=O)NC3CCCCCC3)ccc21,-0.7%
COc1cc(OC)c(NC(=O)Nc2nnc(N(C)C3CCCCC3)s2)cc1Cl,0.9%
CCc1ccc(NC(=O)CC2C(=O)OCCN2CC)cc1 (centres undefined),1.5%
COc1cccc(CNC(=O)Nc2cn(CC(C)C)c(=O)c3ccccc23)c1,4.1%

Screens as filed in PubChem.
